# A1 inh: inhibitors of the anti-apoptotic protein A1, read as caspase activation; MEF A1-2A-BIM cells, Caspase-Glo 3/7 luminescence, 3 h; percent of clofoctol response, vehicle zero; AID 2462; 330,000 compounds, 0.066% hits; caspase activation, % (no concentration beside the values);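 active = over half of replicate activation scores above 10%, or exactly half above 10 with the replicate mean above 10; inconclusive = replicate mean below 10 yet half the replicates above 10; inactive = over half of replicates below 10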;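 also: wells of about 30 µL received 50 nL stock; many hits fall short of the cut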
# LANA-H2B inh: blocks KSHV LANA binding to histone H2A/H2B; AID 2629; inhibition, % (concentration not given with the values); cell-free LANA-H2A/H2B peptide, fluorescence polarization; 320,000 compounds, 0.6% hits; Q9QR71; in the data active = inhibition mostly above about 10%, no sharp cut-off; inactive = mostly below about 6.7%;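 also: stock transfer was 7.5 nL into about 10 µL; 0% = median of vehicle wells and 100% = median of positive control wells; one replicate is shown; the record names a cut of 25% in any replicate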
# Target sequence (Q9QR71 whole entry, looked up): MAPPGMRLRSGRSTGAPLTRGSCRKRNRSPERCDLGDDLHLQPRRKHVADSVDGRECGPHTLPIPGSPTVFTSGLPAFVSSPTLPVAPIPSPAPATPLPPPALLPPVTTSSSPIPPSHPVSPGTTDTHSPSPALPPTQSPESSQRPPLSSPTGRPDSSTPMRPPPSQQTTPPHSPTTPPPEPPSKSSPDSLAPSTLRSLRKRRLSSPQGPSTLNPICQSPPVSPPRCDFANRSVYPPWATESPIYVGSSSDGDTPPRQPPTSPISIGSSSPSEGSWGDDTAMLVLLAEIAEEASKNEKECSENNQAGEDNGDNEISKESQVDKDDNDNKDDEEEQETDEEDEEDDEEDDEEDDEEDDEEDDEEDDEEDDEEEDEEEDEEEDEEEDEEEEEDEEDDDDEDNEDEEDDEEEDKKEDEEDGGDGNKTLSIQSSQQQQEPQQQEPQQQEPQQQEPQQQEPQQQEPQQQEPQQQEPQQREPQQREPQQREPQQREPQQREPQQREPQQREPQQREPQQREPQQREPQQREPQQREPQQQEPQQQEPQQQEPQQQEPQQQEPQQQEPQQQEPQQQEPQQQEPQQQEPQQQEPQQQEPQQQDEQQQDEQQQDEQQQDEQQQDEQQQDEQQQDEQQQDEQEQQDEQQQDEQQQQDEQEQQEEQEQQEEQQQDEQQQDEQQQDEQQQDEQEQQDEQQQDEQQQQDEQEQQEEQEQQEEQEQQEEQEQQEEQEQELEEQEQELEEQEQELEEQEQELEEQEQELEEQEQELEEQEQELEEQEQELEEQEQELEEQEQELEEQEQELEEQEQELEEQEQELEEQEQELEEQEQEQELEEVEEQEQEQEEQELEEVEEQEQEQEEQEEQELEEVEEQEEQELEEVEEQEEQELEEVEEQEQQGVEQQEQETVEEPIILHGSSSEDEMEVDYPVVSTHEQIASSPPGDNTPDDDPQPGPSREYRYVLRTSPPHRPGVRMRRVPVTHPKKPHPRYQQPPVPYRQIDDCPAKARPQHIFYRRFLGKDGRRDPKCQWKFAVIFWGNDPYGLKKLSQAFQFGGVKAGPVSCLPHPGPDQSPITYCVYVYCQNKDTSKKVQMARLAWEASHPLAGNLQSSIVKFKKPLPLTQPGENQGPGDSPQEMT
# Beta apoptosis: blocks beta cell apoptosis; INS-1E cytokine-induced death, ATP luminescence, 48 h; percent of positive-control rescue, neutral wells zero; AID 435005; 300,000 compounds, 0.8% hits; protection from apoptosis, % (no concentration beside the values);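 active = all replicates at 75% or more, or half of them and the mean; inconclusive = half reach 75% but not the mean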;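 also: 0% = cytokine-treated negative control wells and 100% = positive control rescue; higher means more ATP so stronger rescue from cytokine killing; wells of about 40 µL received 100 nL stock; the first replicate is given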
# B2AR ag: activates human beta-2 adrenergic receptor causing internalization. P07550. Am2.2-beta2AR cells, FAP receptor internalization, flow cytometry; reference of the scale not given here. response, % (concentration not given with the values). 340,000 compounds, 0.43% hits. AID 504454;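 active = response above a set limit, near 3 SD of response in nonfluorescent compounds, cut at about 42% in these data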;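 also: stock transfer was 100 nL into about 11 µL; a reference agonist was the positive control; negative values mostly stem from fluorescent compounds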
# UCH37 DUB inh: human UCH37 deubiquitinating enzyme inhibition. Q9Y5K5. purified proteasome/UCH37, Ub-AMC cleavage fluorescence. inhibition, % (concentration not given with the values). 330,000 compounds, 0.33% hits. AID 588478;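 active = mean of two replicates above 20%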;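 also: 0% = compound-free wells with enzyme and 100% = wells lacking proteasome; stock transfer was 100 nL into about 20 µL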
#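 Material: Human UCH37 enzyme supplied as purified proteasome complex | Schedule: 30 min preincubation with enzyme, 25 min cleavage at room temperature | Detection: AMC fluorescence 355/460 nm | Measure: % inhibition of Ub-AMC cleavage fluorescence | Controls: Wells without proteasome as full block, compound-free enzyme plus substrate as uninhibited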
# T cruzi inh: T. cruzi replication inhibition; T. cruzi beta-gal in NIH3T3, luminescence, 90 h; inhibition, % (concentration not given with the values); 300,000 compounds, 1.4% hits;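 active = mean inhibition across valid replicates above about 55%, limit read from the data; inconclusive = mean below that limit but half or more replicates reach it; inactive = mean below it, under half of replicates reach it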;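 also: signal also drops with host cell toxicity which is not excluded here; 0% = plate median of DMSO wells and 100% = zero luminescence signal; higher percent means less beta-gal luminescence so fewer parasites; stock transfer was 50 nL into about 50 µL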
# RanGTP-Impb inh: disruptors of Ran-importin-beta complex formation – biochemical, FRET, CFP-Ran, YFP-importin-beta, homogeneous, primary screen; 300,000 compounds, 1.1% hits; inhibition, % (test concentration not listed); cell-free CFP-Ran/YFP-importin-beta FRET ratio;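 active = most replicates above 15%; inconclusive = exactly half above 15%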;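 also: 0% = DMSO wells and 100% = Ran loaded with GDP instead of GTP; wells of about 40 µL received 100 nL stock; the first replicate is given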
# Calb FLC: C. albicans growth modulation with fluconazole; C. albicans CaCi-2 (fluconazole-resistant clinical isolate) + fluconazole, Alamar Blue growth, 48 h; growth inhibition, % (no concentration beside the values); 300,000 compounds, 0.57% hits; AID 1979;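 active = most replicates above 75%; inconclusive = exactly half above 75%; inactive = most below 75%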;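 also: all wells also contain fluconazole at 8 µg/ml as a sub-toxic cotreatment; 0% = median of DMSO wells and 100% = median of geldanamycin control wells; wells of about 8 µL received 7.5 nL stock; the first replicate is given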
# * = called active by the depositor; i = inactive; ? = inconclusive; nt = no result given.
# The first 2 entries (preview)
SMILES,A1 inh,LANA-H2B inh,Beta apoptosis,B2AR ag,UCH37 DUB inh,T cruzi inh,RanGTP-Impb inh,Calb FLC
S=C(c1ccc(-c2ccc(Cl)cc2)o1)N1CCCCC1,-1.9,4.7,0,-13,5.6,21,-3.2,?
CCCOc1ccc(OCCNC2CCCC2)cc1,-0.4,2.5,-17,-6,0.1,-17,1.8,-58

# All compounds of this part (from the top)
SMILES,A1 inh,LANA-H2B inh,Beta apoptosis,B2AR ag,UCH37 DUB inh,T cruzi inh,RanGTP-Impb inh,Calb FLC
S=C(c1ccc(-c2ccc(Cl)cc2)o1)N1CCCCC1,-1.9,4.7,0,-13,5.6,21,-3.2,?
CCCOc1ccc(OCCNC2CCCC2)cc1,-0.4,2.5,-17,-6,0.1,-17,1.8,-58
Cc1ccc(COc2coc(CN3CCN(C(=O)c4ccco4)CC3)cc2=O)cc1,-0.1,0.9,nt,-2,1.6,5,1.3,-2
CC(C)(C)OC(=O)C[C@H]1C/C=C\C[C@@H](CC(=O)N(CCO)Cc2ccccc2)C(=O)NC[C@@H](c2ccccc2)OC1=O,0.2,-3.8,0,-1,1.2,nt,nt,nt
COC(=O)c1cc(S(=O)(=O)Nc2nn(C)c3cccc(F)c23)oc1C,1.2,-3.0,-4,3,4.5,-9,-0.8,4
COc1cccc(C(=O)NCC(c2cccnc2)N2CCN(c3ccccc3OC)CC2)c1 (stereo not given),-0.3,0.8,6,-4,5.4,24,3.0,13
O=C1c2ccccc2C(Nc2ccccc2F)N1c1cccnc1 (stereo not given),0.4,-1.4,-1,-8,-3.3,0,?,-8
CCn1cc(C(=O)NN)c(=O)c2cc(F)c(N3CCOCC3)cc21,1.6,0.2,-13,6,-17,-4,-1.4,4
S=C(NCc1ccco1)Nc1ccc(Cl)cn1,1.3,1.1,-8,14,1.9,-27,-0.6,-2
Fc1ccc2cnc(-c3ccccc3)c(-c3cccc(C(F)(F)F)c3)c2c1,0.2,-5.6,-5,7,-0.4,nt,nt,nt
Cc1cc2cc(CNS(=O)(=O)c3ccccc3)ccc2n1C,0.2,7.2,0,2,2.1,52,7.6,0
COc1cc(NC(=O)c2c(F)c(F)c(OC)c(F)c2F)ccc1NC(=O)c1cccs1,-0.3,7.0,10,-4,1.0,20,-2.6,32
CCNc1nc(NCC)n2c(SCC(=O)Nc3ccccc3)nnc2n1,-0.7,0.9,-6,0,0.7,-4,4.4,5
CN(CC(=O)Nc1ccc(N2CCOCC2)cc1)C(=O)c1cc2c(s1)CCCC2,-0.1,0.9,8,-2,2.5,nt,nt,nt
COc1ccc(S(=O)(=O)N(C)CC(=O)N2CCCCCC2)cc1OC,-0.8,0.5,-1,0,1.1,-15,0.0,-6
Cc1ccc(CN(C)C(=O)C2CCC(=O)N(C3CCCCCC3)C2)cc1 (stereo not given),-1.3,-14,-4,-3,0.7,8,4.9,3
COC(=O)c1c(N2C(=O)CC(Sc3ncccc3C(=O)O)C2=O)sc(C)c1C (stereo not given),2.3,-7.5,-7,1,1.5,-5,6.9,2
O=C(O)CCN1C(=O)/C(=C\c2ccc(OCc3ccccc3)c(OCc3ccccc3)c2)SC1=S,0.1,1.4,1,6,12,-10,1.8,-14
COc1ccc(C(=O)Nc2ccccc2N2CCOCC2)cc1S(=O)(=O)N1CCOCC1,-0.3,7.1,7,-12,4.5,nt,nt,nt
CC1CCCN(C(=O)c2ccc(COc3ccccc3Br)cc2)C1 (stereo not given),-0.4,-0.8,-5,-6,2.2,28,0.1,22
O=C(COC(=O)C1=NN(c2ccccc2)C(=O)CC1)NCc1ccccc1Cl,0.9,-2.5,0,-8,-0.8,nt,nt,nt
Nc1[nH]n2c(=O)c3c(nc2c1N=Nc1ccccc1)CCCC3,0.0,-2.5,28,-2,10,9,1.0,-3
COCCNc1nc(C)c(C(C)=O)s1,0.3,1.7,-3,0,nt,-16,-7.6,-8
N#Cc1ccc(Cl)cc1NC(=O)COC(=O)[C@H](CCC(N)=O)NC(=O)c1ccc(F)cc1,1.5,-3.1,-1,-1,0.7,-4,1.2,-3
CNc1c([N+](=O)[O-])cnn1-c1cccc(Cl)n1,-0.1,4.1,nt,-3,6.9,0,-1.5,-6
CCOc1ccc(N2C(=O)CC(Sc3ncccn3)C2=O)cc1 (stereo not given),1.3,1.6,1,0,1.7,6,1.2,5
COc1ccccc1-n1c(SCC(N)=O)nc2sc3c(c2c1=O)CCC3,1.1,-0.7,-3,-9,4.9,-3,3.5,-4
COCCSc1ccccc1C(=O)Nc1ccc2c(c1)OCCO2,-2.8,5.8,2,-3,2.9,0,3.5,-6
CSCCC(NC(=O)c1ccco1)C(=O)OCC(=O)N1c2ccccc2NC(=O)C1(C)C (stereo not given),-1.0,-2.2,3,-6,3.8,nt,nt,nt
CSc1ccc(CCNS(=O)(=O)c2c(C)[nH]c(C)c2C(=O)N2CCCCC2)cc1,-0.6,1.6,nt,1,3.6,22,1.1,-16
Oc1c(C(c2cccs2)N2CCN(c3ccc(F)cc3)CC2)sc2ncnn12 (stereo not given),-1.9,13,-5,-8,0.8,-13,1.7,-7
Cc1cc(NC(=O)c2cccc(Cl)c2)n[nH]1,-4.6,5.3,-2,-2,35*,-14,2.3,22
O=C(NCc1ccco1)C1CCN(S(=O)(=O)Cc2ccccc2)CC1,1.0,3.3,-1,8,-0.5,-9,4.2,4
COc1ccc(OC)c(NC(=O)COC(=O)/C=C/c2ccccc2Cl)c1,1.7,nt,7,0,3.4,-18,0.4,?
CSc1nnc(Cc2cc(=O)[nH]c(=O)[nH]2)n1-c1cccc(C)c1,0.2,0.4,-4,1,-0.2,-9,7.9,-15
COc1cccc(Nc2c3c(nc4c(-c5ccccc5)c(C)nn24)CCC3)c1,-0.5,-4.1,40,-13,-40,47,0.3,50
COc1ccc(C2OCC3(CO2)SC(=O)NC3=O)cc1 (stereo not given),0.0,-2.5,-4,-3,6.5,-15,3.2,9
O=S1(=O)CCO[C@H]2Cc3ccccc3[C@H]2N1Cc1ccccc1F,1.7,3.4,3,-5,1.2,-5,2.0,10
S=c1[nH]nc(-c2cccnc2)n1/N=C/C=C/c1ccccc1,-0.2,0.8,-3,-7,nt,2,1.3,21
Cc1ccccc1Cn1nnc(C(=O)Nc2ccc3c(c2)OCCO3)c1N,-1.6,-1.3,nt,3,6.7,-2,1.7,1
O=C(O)CCCCCN1C(=O)/C(=C\c2ccncc2)SC1=S,-0.9,0.8,-10,6,7.4,38,?,68
COc1ccc(N=Cc2sc3ccccc3c2Cl)cc1,-0.8,-1.3,4,13,5.9,-6,5.8,5
COc1ccc(Cn2c(=O)[nH]c3cc(C(=O)NCCc4ccc(S(N)(=O)=O)cc4)ccc3c2=O)cc1,0.1,-0.3,-2,-7,-3.0,5,-1.7,-3
CCOC(=O)c1c(C)[nH]c(C(=O)NCC(c2ccco2)N2CCCCC2)c1C (stereo not given),-0.5,8.5,3,16,2.3,nt,nt,nt
Cc1ccc(CS/C(Nc2ccccc2C)=C(\C#N)C(=O)NCc2ccco2)c(C)c1,0.0,-0.6,4,11,5.2,39,1.5,-3
Cc1ccc(NC(=O)CN(C)CC(=O)Nc2cccc(F)c2)cc1[N+](=O)[O-],-0.8,-6.0,64,-13,2.3,21,5.8,9
O=S(=O)(c1ccc2c(c1)CCCN2)N1CCCC1,0.3,-3.0,0,3,2.4,nt,nt,nt
CS(=O)(=O)N(CC(=O)N1CCN(Cc2ccccc2)CC1)Cc1ccccc1,-0.1,-3.1,1,3,-1.9,-1,4.2,-1
COc1cccc(CN(C(=O)COc2ccc(Cl)cc2)C2CCS(=O)(=O)C2)c1 (stereo not given),-0.5,-0.9,-4,-14,4.7,33,?,3
Cc1cc(C)c(NC(=O)Cn2nnc(C(=O)NCc3cccs3)c2N)c(C)c1,0.9,-2.7,-4,-6,-0.1,-10,2.4,-7
# (continued)
SMILES,A1 inh,LANA-H2B inh,Beta apoptosis,B2AR ag,UCH37 DUB inh,T cruzi inh,RanGTP-Impb inh,Calb FLC
CCCCn1nnc(NC(=O)c2ccc(-c3cccc([N+](=O)[O-])c3)o2)n1,0.9,-6.0,-3,nt,4.8,12,-1.1,51
CC(C)n1ncc2c(C(=O)NCCOc3ccccc3F)cc(C3CC3)nc21,-1.1,-4.1,8,5,-10,nt,nt,nt
Cc1ccc(S(=O)(=O)Nc2ccc3c(c2)nc(CCN2CCOCC2)n3C)cc1,0.3,0.7,-3,-10,-0.8,-11,-2.4,2
O=C(c1ccc(CS(=O)Cc2ccc(Cl)cc2)o1)N1CCN(c2ccccc2)CC1 (stereo not given),1.1,1.7,-6,-3,1.8,2,-2.4,-3
Cn1nc(OC(=O)Nc2ccc(F)cc2)cc1C(F)(F)F,-1.0,0.7,-2,0,7.4,-9,9.9,12
CC1(C)CNc2cc(N)ccc2S1,-0.3,1.0,-1,15,1.3,27,2.6,-13
COc1ccc2c(OC)cc(-c3ccccc3)nc2c1,0.2,2.8,4,-17,-3.2,-5,-0.2,9
O=S(=O)(c1ccc(Br)cc1)N1CCn2c(nc3ccccc32)C1,0.2,-4.1,-4,0,0.5,-7,3.0,-2
CC(=O)OCc1c(C)cc(C)c(/C=C(/C#N)C(N)=O)c1C,0.1,2.5,-5,-1,-0.5,-13,6.1,11
COC(=O)CCC(=O)Nc1cccc([N+](=O)[O-])c1,0.3,3.3,-1,7,2.0,-13,1.0,33
Cc1ccc2[nH]c(=O)c3cc(C(=O)NC(C)C)sc3c2c1,-0.4,3.6,6,6,-361,-3,4.9,-2
CCCc1c(NC(=O)Nc2ccc(F)cc2)cnn1-c1ccc(Cl)cc1,?,-3.4,2,6,7.9,2,-2.1,3
COc1ccc(NC(=O)Nc2c[nH]c(=O)[nH]c2=O)cc1OC,0.5,-2.0,-3,3,-1.2,-13,0.5,-6
CCOCCCNc1nc2c(C)cccn2c(=O)c1/C=C1\SC(=S)N(C(C)CC)C1=O (stereo not given),-0.9,-1.4,16,i,9.5,4,-136,1
CCn1ncc(S(=O)(=O)NCc2ccccc2Cl)c1C,1.6,2.5,1,-5,3.7,-7,nt,nt
CN(C)c1nc(N(C)C)nc(N2CC(=O)N(c3ccccc3)C2=N)n1,-0.7,4.6,2,-5,2.7,9,1.1,?
Cc1ccc(CCC(=O)Nc2ccc(CC(=O)O)cc2)o1,0.6,2.5,-2,4,4.1,?,4.7,-7
O=C(Nc1cc(C(F)(F)F)ccc1N1CCOCC1)c1ccc(Cl)nc1,0.0,-3.3,8,-5,0.8,7,1.2,16
OCC#CCSc1nnc(-c2ccccc2Br)o1,-0.9,-5.9,-1,0,0.7,15,-2.9,-12
O=C(COc1ccccc1)Nc1ccc(Cl)cc1Cl,-2.2,-2.0,-1,nt,nt,0,?,-2
CC(=O)Nc1nc2c(c3c1c(=O)oc1ccccc13)CCCC2,nt,nt,nt,nt,-27,-26,13,-12
CC1CCC2(CC1)NC(=O)N(CC(=O)c1ccc(Cl)s1)C2=O (stereo not given),1.9,2.4,-2,-2,3.6,4,1.3,-3
CS(=O)(=O)c1ccc(Cl)c(NC(=O)COC(=O)/C=C/c2cnc3ccccc3n2)c1,1.4,-1.3,-3,9,4.7,-11,4.1,3
CCCS(=O)(=O)N1CCC(C(=O)NCCN2CCC(Cc3ccccc3)CC2)CC1,-0.1,3.9,-6,-1,4.1,29,-0.3,-1
